Cruzain Triton – qHTS Assay for Promiscuous and Specific Inhibitors of Cruzain (with detergent); Cruzipain (Trypanosoma cruzi), P25779; purified cruzain, Z-FR-AMC fluorescence, 0.01% Triton; Potency, µM, inactives show max response, negative = inhibition, usual class: inhibitors; hit rate 0.43% among 200,000; AID 1478, 2009; active = well fitted curve in the direction sought with a large enough effect; inconclusive = small, poorly fitted or top-dose-only effect, or another doubt; inactive = no such curve, though single readings can be large; an effect the other way counts as inactive or inconclusive;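 note: plate controls were neutral wells for no effect and buffer without enzyme for full effect; nearly all actives have a fitted effect of over 40% in size; top concentration of the series not given in the record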
Target sequence (P25779 123-467 limits assumed): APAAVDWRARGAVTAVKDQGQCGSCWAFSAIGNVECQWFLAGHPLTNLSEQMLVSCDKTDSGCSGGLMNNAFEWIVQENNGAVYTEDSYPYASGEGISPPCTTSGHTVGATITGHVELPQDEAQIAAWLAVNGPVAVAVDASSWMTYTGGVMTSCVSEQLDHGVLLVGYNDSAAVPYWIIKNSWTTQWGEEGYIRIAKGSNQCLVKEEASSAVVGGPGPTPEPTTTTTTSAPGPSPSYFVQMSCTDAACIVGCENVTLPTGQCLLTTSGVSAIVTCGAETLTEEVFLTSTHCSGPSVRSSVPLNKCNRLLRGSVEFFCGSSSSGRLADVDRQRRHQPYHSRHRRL
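Read-out: AMC fluorescence (360 nm excitation, 450 nm emission), four reads over 2 min, first-to-third difference used. Conditions: cruzain 1.5 nM, Z-FR-AMC 2 uM, pH 5.5 acetate, 5 mM DTT, 0.01% Triton X-100.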
LASV entry inh – qHTS for Inhibitors of binding or entry into cells for Lassa Virus | Lassa virus pseudotype entry inhibition, cell reporter; control for the full effect not named in the record | Potency, µM (series often up to 37.9 µM), for inactives: top-dose activity change, negative = inhibition, actives largely listed as inhibitors | hit rate 1.2% among 300,000; active means well fitted inhibition curve with a large enough effect; inconclusive means small, poorly fitted or top-dose-only effect, or effect the other way; inactive means flat fitted curve, though single readings scatter; tested in HEK293 cells; note: % is set by controls: 0 for no effect and ±100 for the full control effect; nearly all actives have a fitted effect of over 50% in size; luciferase read-out
NS1 inh – qHTS Assay for Inhibitors of Influenza NS1 Protein Function | S. cerevisiae slowed by influenza A NS1, growth recovery by OD600 | Potency, µM (doses to about 46.1 µM), for inactives: at the highest dose activity, positive = more growth | hit rate 0.4% among 270,000; note: actives are rising curves; nearly all actives have a fitted effect of over 50% in size
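Compounds were scored for reversing the slow growth caused by influenza A NS1 in S. cerevisiae, measured by optical density at 600 nm. Assay medium contained 2% galactose at pH 6.0; NS1-free yeast of the same strain were the positive control.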
MARV entry inh – qHTS for inhibitors of binding or entry into cells for Marburg Virus; Marburg virus pseudotyped entry inhibition, cell reporter; control for the full effect not named in the record; about a third of the inactives were read at about 46 µM; Potency, µM (series often up to 37.8 µM), without a hit: at the highest dose activity change, negative = inhibition, most hits filed as inhibitors; hit rate 1.8% among 300,000; AID 540276, 2011; active = well fitted inhibition curve with a large enough effect; inconclusive = small, poorly fitted or top-dose-only effect, or effect the other way; inactive = flat fitted curve, though single readings scatter; tested in HEK293 cells; about a fifth of its hits are not listed in these tables; note: % is set by controls: 0 for no effect and ±100 for the full control effect; luciferase read-out
SARS PLpro yeast – qHTS of Yeast-based Assay for SARS-CoV PLP | S. cerevisiae expressing SARS-CoV PLpro, growth rescue; control for the full effect not named in the record | Potency, µM (doses to about 32.9 µM), without a hit: at the highest dose activity, positive = growth rescue | hit rate 0.19% among 330,000; note: 0% is about no effect; nearly all actives have a fitted effect of over 55% in size; growth read by luminescence after 48 h
Cruzain noTriton – qHTS Assay for Promiscuous and Specific Inhibitors of Cruzain (without detergent) | Potency, µM, for the others: max response, negative = inhibition, usual class: inhibitors | AID 1476, 2009 | purified cruzain, Z-FR-AMC fluorescence, no detergent | hit rate 2.3% among 200,000; active = well fitted curve in the direction sought with a large enough effect; inconclusive = small, poorly fitted or top-dose-only effect, or another doubt; inactive = no such curve, though single readings can be large; an effect the other way counts as inactive or inconclusive;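 note: plate controls were enzyme without inhibitor for no effect and buffer without enzyme for full effect; nearly all actives have a fitted effect of over 40% in size; top concentration of the series not given in the record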
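Purified cruzain at 1.5 nM, pre-incubated 15 min with compound at room temperature in 100 mM sodium acetate pH 5.5, 5 mM DTT, 0.00005% Triton X-100. Reaction started with 2 uM Z-FR-AMC; AMC fluorescence increase over 60 s gives rate.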
RE007 growth inh – qHTS Assay for Inhibitors of the HIV-1 protein Vpr; hit rate 0.21% among 360,000; Potency, µM (highest dose often 92.2 µM), without a hit: at the highest dose activity change, negative = less growth; S. pombe RE007 Vpr strain, BacTiter-Glo ATP luminescence, 24 h; control for the full effect not named in the record; active = well fitted falling curve with a large enough effect; inconclusive = small, poorly fitted or top-dose-only effect; inactive = no such curve, though single readings can be large or run the other way;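 note: % is set by controls: 0 for no effect and ±100 for the full control effect; nearly all actives have a fitted effect of over 50% in size; the assay follows cell death caused by Vpr and the record does not say whether a fall means rescue or toxicity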
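Fission yeast strain RE007, carrying one chromosomally integrated HIV-1 vpr copy, was seeded at OD 0.01 in PMG+AL medium with 23 nL pinned compound. After 24 h at 30 °C and 99% humidity, viability was read by BacTiter-Glo luminescence.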
StopGo reporter – High Throughput Screening for Foot and Mouth Disease Virus Antivirals; human cells with a luciferase reporter of 2A StopGo recoding; control for the full effect not named in the record; Potency, µM (series often up to 57.9 µM), for inactives: top-dose signal change, negative = less light; hit rate 1.2% among 410,000; AID 1159524, 2015; active = well fitted falling curve with a large enough effect; inconclusive = small, poorly fitted or top-dose-only effect; inactive = no such curve, though single readings can be large or run the other way; tested in HEK293T cells; note: % is set by controls: 0 for no effect and ±100 for the full control effect; nearly all actives have a fitted effect of over 45% in size; luciferase light after 4 h
* hit, by the source's call; ? = inconclusive; · = not tested or not shown; & = joins results of further samples; [ ] = another dose, or the depositor's remark. Unless noted, calls come from the whole dose curve; as a rule, active means well fitted rising curve with a large enough effect; inconclusive means small, poorly fitted or top-dose-only effect; inactive means no such curve, though single readings can be large or run the other way. Potency is the fitted concentration of half-maximal effect.

SMILES | Cruzain Triton | LASV entry inh | NS1 inh | MARV entry inh | SARS PLpro yeast | Cruzain noTriton | RE007 growth inh | StopGo reporter
Cc1ccc([N+](=O)[O-])cc1S(=O)(=O)Nc1ccc(-c2ccc(N3CCCC3)nn2)cc1 | · | 8%[46.1 µM] | · | ? | 4% | · | -28% | 24%
CCCCn1c(=O)c(C(=O)Nc2ccccn2)c(O)c2ccccc21 | · | · | -1% | · | -6% | · | -17% | -16%
Cc1ccc(C)c(S(=O)(=O)NCc2ccc3c(c2)OCO3)c1 | · | 16% | -28% | 0% | · | · | -3% | 0%
O=C(CCCc1c[nH]c2ccccc12)Nc1ccc2ccccc2c1 | -17% | ? | 5% | -8% | -9% | -18% | 3% | -11%
CN(CC(=O)Nc1cccc(F)c1)C(=O)c1ccc(N2CCCC2)c([N+](=O)[O-])c1 | · | -7% | · | -30%[46.1 µM] | -2% | · | -3% | -9%
CC(C)C(NS(=O)(=O)c1ccc2c(c1)oc(=O)n2C)C(=O)NCCc1ccccc1 (stereo not drawn) | 1.2% | 19%[46.1 µM] | · | 1%[46.1 µM] | · | -13% | · | -10%
O=C(O)COc1ccc(/C=N/NC(=O)c2cccc3ccccc23)cc1 | · | 19% | -2% | 5%[46.1 µM] | 1% | · | 12% | 0%
O=C(CN1C(=O)C2C3C=CC(C3)C2C1=O)Nc1nc2ccccc2[nH]1 (stereo not drawn) | 1.2% | 11% | 5% | 23% | -2% | 0% | -1% | 20%
CCCn1c(N)c(C(=O)CSc2nnc(-c3cccnc3)n2-c2ccc(C)cc2C)c(=O)[nH]c1=O | 1.4% | 15% | -2% | ? | 0% | -18% | 3% | ?
COc1ccccc1-n1c(O)c(/C=C2\C=Nc3ccccc32)c(=O)[nH]c1=O | · | · | 18% | · | 5% | · | 0% | ?
CCCCCCCC1CC(=O)C=C(C)C1C(=O)OCC (stereo not drawn) | · | 19% | -2% | 0%[14.2 µM] | 1% | · | 13% | 0%
CCC1CN(C(=O)NCc2ccc(C)cc2)c2ccccc2O1 (stereo not drawn) | -10% | 8%[46.1 µM] | -31% | · | -2% | ? | -9% | -17%&0%
COc1ccc(S(=O)(=O)N(CC(=O)NCc2ccco2)c2ccccc2OC)cc1 | · | 0%[46.1 µM] | 7% | 0%[46.1 µM] | -13% | · | 1% | 0%
O=C(CCCC(=O)N(c1cccc(F)c1)C(C(=O)NC1CCCC1)c1ccc(O)cc1)Nc1ccccn1 (stereo not drawn) | · | ? | -14% | -5%[46.1 µM] | 3% | · | -9% | 49%[activator]
CCOC(=O)c1sc(N)c(C#N)c1CSc1nc2ccc(C)cc2[nH]1 | 3.5% | -21% | 16% | -7% | · | 7% | 2% | -30%
CC1=Nn2c(nc(-c3ccccc3)c2-c2ccccc2)N(CC(N)=O)C(=O)C1 | -0.4% | -22% | 7% | -7% | 11% | -3% | 4% | -21%
O=C(CCC(=O)N(CC(=O)NC1CCCCC1)c1ccc(F)cc1)Nc1nccs1 | · | 14%[46.1 µM] | 1% | 1%[46.1 µM] | 1% | · | -5% | 16%
O=C(Nc1cccc(C(F)(F)F)c1)C1CCN(S(=O)(=O)c2cnc[nH]2)CC1 | 2.6% | -1% | 0% | -3%[46.1 µM] | 3% | 10% | 10% | -19%
CCCC(=O)NC(NC(=S)Nc1ccc(N=Nc2ccccc2)cc1)C(Cl)(Cl)Cl (stereo not drawn) | -4.5% | ? | 4% | ? | -13% | -29% | -3% | ?
CCOc1ccc(/C=C/C(=O)NCc2ccccc2)cc1 | -4.0% | -19% | 3% | 1% | -32% | 4% | · | 31%[activator]
COc1cc(C2c3c(oc4ccccc4c3=O)C(=O)N2Cc2ccco2)ccc1O (stereo not drawn) | -1.6% | -22% | 4% | ? | 2% | -5% | 4% | 5%
COc1ccccc1C(=O)Nc1ccnn1C1CCN(CCC(C)c2ccc(C)o2)CC1 (stereo not drawn) | · | · | -3% | · | 3% | · | -5% | -24%
O=C(CN1CCc2ccccc2C1)Nc1ccc(Br)cc1 | -3.7% | -11% | -17% | 20% | -4% | -3% | 3%[3.69 µM] | 23%
CCCCCCn1c(=O)c(C(=O)Nc2c(C)n(C)n(-c3ccccc3)c2=O)c(O)c2ccccc21 | · | 22% | -4%&-34% | 14%&14%[46.1 µM] | -1% | · | -8% | -28%
c1nnc2c3c4c(sc3ncn12)CCC4 | -0.3% | -14% | -9% | 1% | 3% | -4% | 2% | -30%
CCOC(=O)c1[nH]cnc1C(=O)Nc1ccc(C)cc1 | · | · | -1% | · | 1% | · | 4% | 5%
COc1ccc(-c2nn(C)c(=O)c3ccccc23)cc1NC(=O)COc1ccccc1 | -1.5% | ? | 25% | -21% | 0% | 9% | 5% | 18µM*
COC(=O)CN1C(C(=O)c2ccccc2)=C(OC(=O)c2ccc(C)cc2)c2ccccc2S1(=O)=O | -6.7% | -10%[46.1 µM] | · | ? | · | -29% | · | -27%
COc1ccc(C)cc1NC(=O)C(OC(=O)c1ccc([N+](=O)[O-])o1)c1ccccc1 (stereo not drawn) | -7.7% | 2% | -22% | -5% | -22% | ? | -11% | -1%
O=C(CCCN=C1NS(=O)(=O)c2ccccc21)OCC(=O)c1ccc(Br)cc1 | · | -7% | -8% | 12% | 1% | · | 9% | -4%
O=C(c1ccc2ncsc2c1)N1CCCC(C(F)(F)F)C1 (stereo not drawn) | · | -1% | · | 18%[46.1 µM] | 1% | · | 33% | -20%
CCOc1cccc(N(C(=O)C2COc3ccccc3O2)C(C(=O)NC2CCCCC2)c2ccc(O)cc2)c1 (stereo not drawn) | -0.2% | ? | 7% | -1% | 11% | -3% | -5% | -24%
CN(C)C(=O)Nc1ccccc1 | · | 0%[46.1 µM] | 5% | 4%&4%&4%[46.1 µM] | 0% | · | 19% | -10%
CCOC(=O)N1CCN(S(=O)(=O)c2ccc3c(c2)OCC(=O)N3)CC1 | 9.7% | -9% | 1% | 6% | 7% | -7% | 9% | -4%
COc1ccc(/C=N/NC(=O)c2ccc(NC(C)=O)cc2)cc1COc1ccc(F)cc1F | · | · | 3% | · | -6% | · | -3% | ?
CCOC(=O)C1=C(N)N(c2ccccc2)C(=O)C1 | 3.7% | 2% | ? | 1% | 3% | 11% | -16% | -14%
O=C(NNc1c2ccccc2nc2ccccc12)c1ccc(O)cc1 | -9.9% | ? | -11% | 5.8µM* | 2% | -19% | -4% | -5%
Cc1ccc(OCC(=O)OCc2cc(=O)n3nc(-c4cccs4)sc3n2)cc1C | -0.6% | -2%[46.1 µM] | · | · | · | 0% | · | -16%
O=C(CSc1ccccc1C(=O)O)NCc1ccc(Cl)cc1 | -2.3% | ? | -1% | -3% | 12% | -7% | 20% | 38%[activator]
NC1=NC(c2cccc(O)c2)n2c(nc3ccccc32)N1 (stereo not drawn) | 2.0% | 0% | -53% | -24% | -2% | 1% | -6% | ·
COc1ccc(CNC(=O)C2CC(O)CN2C(=O)Nc2ccccc2)cc1 (stereo not drawn) | · | ? | 4% | 9% | 0% | · | 2% | -5%
CCOc1ccc(C2=C(C(C)=O)Sc3nnc(C)n3N2C(C)=O)cc1 | -3.0% | ? | · | · | · | -3% | · | 0%
CN1C(=O)c2ccccc2Sc2ccc(NC(=O)COc3ccc(Cl)cc3)cc21 | -2.6% | ? | · | · | · | ? | · | ?
CCOc1ccc(C(=O)NCCc2ccc3c(c2)OCCO3)cc1 | · | -13% | · | 8%[46.1 µM] | -2% | · | 11% | -17%
CCN1C=C(C(=O)OC)C(c2cccc(C)c2)C(C(=O)OC)=C1 | -24% | 6% | -4% | -25% | 5% | 11% | 14% | 0%
COc1cc(/C=N/NC(=O)C(=O)NCc2cccnc2)ccc1O | -6.5% | -1% | 20% | 22% | ? | 2% | -14% | -5%
Cc1ccc(OCCCSc2nc(-c3ccc(C(C)(C)C)cc3)nc3cc(=O)[nH]n23)cc1C | -1.0% | 22%[46.1 µM] | · | · | · | ? | · | -9%
CCOc1ccc(N(CC(=O)NC(C)(C)C)C(=O)c2ccco2)cc1 | 2.7% | -4% | -2% | -1% | 6% | -2% | 7% | 7%
COCCCN(C(=O)CSCC(=O)Nc1cccc(C)c1)c1c(N)n(Cc2ccccc2)c(=O)[nH]c1=O | · | -10% | · | 13% | 5% | · | -21% | -6%
CC(=O)N1CCN(CC(=O)Nc2cc([N+](=O)[O-])ccc2Cl)CC1 | · | · | · | 5%[46.1 µM] | 3% | · | 18% | -10%
O=C(Cc1ccc(F)cc1)OCC(=O)c1cc2ccccc2o1 | -7.8% | -11% | -19% | 10% | ? | -9% | 19% | 11%

Profiles, quoted from the list. Values in the order: Cruzain Triton | LASV entry inh | NS1 inh | MARV entry inh | SARS PLpro yeast | Cruzain noTriton | RE007 growth inh | StopGo reporter
Listed for COc1ccc(CNC(=O)C2CC(O)CN2C(=O)Nc2ccccc2)cc1 (stereo not drawn) = · | ? | 4% | 9% | 0% | · | 2% | -5%
Listed for Cc1ccc(OCCCSc2nc(-c3ccc(C(C)(C)C)cc3)nc3cc(=O)[nH]n23)cc1C = -1.0% | 22%[46.1 µM] | · | · | · | ? | · | -9%
Listed for CCOc1ccc(C2=C(C(C)=O)Sc3nnc(C)n3N2C(C)=O)cc1 = -3.0% | ? | · | · | · | -3% | · | 0%
Listed for CCOc1ccc(N(CC(=O)NC(C)(C)C)C(=O)c2ccco2)cc1 = 2.7% | -4% | -2% | -1% | 6% | -2% | 7% | 7%
Listed for COCCCN(C(=O)CSCC(=O)Nc1cccc(C)c1)c1c(N)n(Cc2ccccc2)c(=O)[nH]c1=O = · | -10% | · | 13% | 5% | · | -21% | -6%

High-throughput results: PubChem, National Center for Advancing Translational Sciences (NCATS)
